NPYLR7 agonist: activates Aedes aegypti NPYLR7 receptor; activation, % at 10 µM; HEK293T NPYLR7/Galpha15, GCaMP6s calcium fluorescence; 270,000 compounds, 0.15% hits; in the data active = activation above about 40%;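 also: 0% = vehicle and 100% = reference agonist at the receptor; some compounds past the cut are filed as inactive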
NPYLR7 agonist max-min: also measured in NPYLR7 agonist; calls as there; activation, %; measured here: Max-Min RFU normalised activation; some inactives read as strong as hits;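 span of the calcium signal over five minutes; 0% = vehicle and 100% = native peptide agonist; compound fluorescence can raise it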
* = called active by the depositor.

Cc1ccccc1N1CCN(C(=O)/C=C/c2cnn(C)c2)C(C)C1 (centres undefined) was read as NPYLR7 agonist -1 and NPYLR7 agonist max-min 0.
`O=C(Nc1ccc(F)c(Cl)c1)N1CCSC1c1cccs1` (centres undefined) gave NPYLR7 agonist 4 and NPYLR7 agonist max-min 11.
Screening CCOc1cccc2c1OCC(C(=O)NCCc1csc(C)n1)=C2 returned NPYLR7 agonist 2 and NPYLR7 agonist max-min 1.
Screening CCc1ccc(NC(=O)CC(C(C)=O)C(=O)Nc2ccc(F)cc2)cc1 (centres undefined) returned NPYLR7 agonist 2 and NPYLR7 agonist max-min 2.
`c1ccc2oc(CSc3nnc(C4CC4)n3C3CC3)nc2c1` gave NPYLR7 agonist -1 and NPYLR7 agonist max-min 9.
Screening Cc1ccc(CNC(=O)NCC#Cc2ccccc2)c(C)c1 returned NPYLR7 agonist 14 and NPYLR7 agonist max-min 4.
For COc1ccccc1-n1cc(-c2ccnc(NCCc3cnccn3)n2)cn1 the results were NPYLR7 agonist 0 and NPYLR7 agonist max-min -7.
For Cc1c(C(=O)NC(C)c2ccccc2)cc(-c2ccc(Cl)cc2)n1-c1cccc(F)c1 (centres undefined) the results were NPYLR7 agonist 2 and NPYLR7 agonist max-min 11.
CCn1c(SCCC#N)nc2sc(C)c(C)c2c1=O was read as NPYLR7 agonist 4 and NPYLR7 agonist max-min -1.
`COc1ccc(S(=O)(=O)NCC2CCCO2)cc1N1CCN(C(=O)CCCCCCl)CC1` (centres undefined) gave NPYLR7 agonist 26 and NPYLR7 agonist max-min 18.
For COc1ccc(Cc2noc(-c3ccc(NC(C)c4cnn(C)c4)nc3)n2)cc1 (centres undefined) the results were NPYLR7 agonist 3 and NPYLR7 agonist max-min -1.
CC(C)N(Cc1nccn1C)C(=O)/C=C/c1ccccc1 was read as NPYLR7 agonist 1 and NPYLR7 agonist max-min 1.
Screening CCc1nc(C)c(C(=O)NC(C)c2nnc3n2CCNCC3)o1 (centres undefined) returned NPYLR7 agonist -1 and NPYLR7 agonist max-min -2.
`Brc1ccc(-c2cn3ccccc3n2)s1` gave NPYLR7 agonist 0 and NPYLR7 agonist max-min -2.
`CC(=O)N1CCC(C(=O)NCc2cccnc2N(C)Cc2ccccc2)CC1` gave NPYLR7 agonist 4 and NPYLR7 agonist max-min -1.
`CC(C)c1ccc(C(=O)c2c(N)c(C(=O)Nc3ccccc3)c3ccccn23)cc1` gave NPYLR7 agonist -5 and NPYLR7 agonist max-min -10.
For COc1ccccc1C(=O)N1CCN(c2nc(C)nc(C)c2Cc2ccccc2F)CC1 the results were NPYLR7 agonist 8 and NPYLR7 agonist max-min 17.
`CC1CC1C(=O)N1CCN(S(=O)(=O)c2ccccc2F)CC1` (centres undefined) gave NPYLR7 agonist 0 and NPYLR7 agonist max-min 47.
Screening COc1cccc(-c2nc3ccccn3c2NC(=O)Cc2ccccc2)c1 returned NPYLR7 agonist -4 and NPYLR7 agonist max-min 4.
For Cc1nc2ncccn2c1C(=O)N1CCCC(Cc2ccc(C(=O)O)cc2)C1 (centres undefined) the results were NPYLR7 agonist 4 and NPYLR7 agonist max-min 1.

Reprinted from the listing for reference:
Screening CCOc1cccc2c1OCC(C(=O)NCCc1csc(C)n1)=C2 returned NPYLR7 agonist 2 and NPYLR7 agonist max-min 1.
Screening CCc1ccc(NC(=O)CC(C(C)=O)C(=O)Nc2ccc(F)cc2)cc1 (centres undefined) returned NPYLR7 agonist 2 and NPYLR7 agonist max-min 2.
`c1ccc2oc(CSc3nnc(C4CC4)n3C3CC3)nc2c1` gave NPYLR7 agonist -1 and NPYLR7 agonist max-min 9.
Screening Cc1ccc(CNC(=O)NCC#Cc2ccccc2)c(C)c1 returned NPYLR7 agonist 14 and NPYLR7 agonist max-min 4.
For COc1ccccc1-n1cc(-c2ccnc(NCCc3cnccn3)n2)cn1 the results were NPYLR7 agonist 0 and NPYLR7 agonist max-min -7.
For Cc1c(C(=O)NC(C)c2ccccc2)cc(-c2ccc(Cl)cc2)n1-c1cccc(F)c1 (centres undefined) the results were NPYLR7 agonist 2 and NPYLR7 agonist max-min 11.
CCn1c(SCCC#N)nc2sc(C)c(C)c2c1=O was read as NPYLR7 agonist 4 and NPYLR7 agonist max-min -1.
`COc1ccc(S(=O)(=O)NCC2CCCO2)cc1N1CCN(C(=O)CCCCCCl)CC1` (centres undefined) gave NPYLR7 agonist 26 and NPYLR7 agonist max-min 18.
For COc1ccc(Cc2noc(-c3ccc(NC(C)c4cnn(C)c4)nc3)n2)cc1 (centres undefined) the results were NPYLR7 agonist 3 and NPYLR7 agonist max-min -1.

New compounds follow.
For CC(=CC(=O)N1CCCCC1CC(N)=O)C12CC3CC(CC(C3)C1)C2 (centres undefined) the results were NPYLR7 agonist 13 and NPYLR7 agonist max-min 13.
For Cc1cc2oc3c(c(=O)c2cc1Cl)C(c1ccccc1)N(c1nccs1)C3=O (centres undefined) the results were NPYLR7 agonist -2 and NPYLR7 agonist max-min -3.
Screening CCOc1ccc(C(=O)Oc2coc(CSc3ncccn3)cc2=O)cc1OCC returned NPYLR7 agonist -11 and NPYLR7 agonist max-min -4.
`O=C(CN1CCn2nc(C(=O)NC3CCCCC3)cc2C1=O)c1ccccc1` gave NPYLR7 agonist 0 and NPYLR7 agonist max-min 0.
For COCCNC(=S)NCCc1cc2c(C)ccc(C)c2[nH]c1=O the results were NPYLR7 agonist 9 and NPYLR7 agonist max-min 7.
Nc1nc(Sc2ccc([N+](=O)[O-])cc2)nc2sc3c(c12)CCCC3 was read as NPYLR7 agonist 18 and NPYLR7 agonist max-min 30.
Screening CCS(=O)(=O)c1nnnn1-c1ccccc1S(C)(=O)=O returned NPYLR7 agonist 0 and NPYLR7 agonist max-min 0.
COc1cccc(CN(CC2CC(c3ccccc3C)=NO2)C(=O)C2CCCC2)c1 (centres undefined) was read as NPYLR7 agonist -9 and NPYLR7 agonist max-min 10.
`CCc1nc2ccc(C(=O)N(C)CCN(C)C)cn2c1N(C)Cc1cc2ccccc2s1` gave NPYLR7 agonist 13 and NPYLR7 agonist max-min 10.
`CC(NC(=O)C1CCN(Cc2cccc(Cl)c2)CC1)c1ccc(F)cc1` (centres undefined) gave NPYLR7 agonist 7 and NPYLR7 agonist max-min 2.
N[C@@H]1[C@@H](O[C@@H]2O[C@H](C(=O)O)[C@@H](O)[C@H](O)[C@H]2O)[C@@H](O)[C@@H](CO)O[C@@H]1O was read as NPYLR7 agonist -9 and NPYLR7 agonist max-min -11.
`O=C(c1c(F)cccc1F)N1CCC(Nc2ccccc2)C1` (centres undefined) gave NPYLR7 agonist 5 and NPYLR7 agonist max-min 1.
`Cc1c(C(=O)N2CCN(C/C=C/c3ccccc3)CC2)cc(-c2ccccc2)n1-c1ccc2c(c1)OCO2` gave NPYLR7 agonist 13 and NPYLR7 agonist max-min 15.
CC(C)C1CN(C(=O)c2ccc(-n3cnnn3)cc2)CCCN1CC1CC1 (centres undefined) was read as NPYLR7 agonist 2 and NPYLR7 agonist max-min 2.
Cc1ccc(Cc2c(C)[nH]n(-c3nc4ccccc4[nH]3)c2=O)cc1 was read as NPYLR7 agonist -13 and NPYLR7 agonist max-min -19.
COc1ccc(CCN2C(=O)CC(C(=O)O)SC2=Nc2ccccc2)cc1 (centres undefined) was read as NPYLR7 agonist 1 and NPYLR7 agonist max-min -2.
`Cc1cccc(-n2cc(CN3CCC(N4CCOCC4)CC3)c(-c3cccc(F)c3)n2)c1` gave NPYLR7 agonist 8 and NPYLR7 agonist max-min 8.
CNc1nc(C(=O)N2CCc3c(ncnc3N3CCOCC3)C2)cs1 was read as NPYLR7 agonist -2 and NPYLR7 agonist max-min -6.
Screening CN=c1scc(-c2ccc(Br)cc2)n1N=Cc1cccc(F)c1 returned NPYLR7 agonist -1 and NPYLR7 agonist max-min -3.
`O=S(=O)(c1ccc(F)cc1)N1CCCC(OCc2ccc(OC(F)(F)F)cc2)C1` (centres undefined) gave NPYLR7 agonist -3 and NPYLR7 agonist max-min 0.
COCCN(Cc1ccco1)CC(O)COCc1ccco1 (centres undefined) was read as NPYLR7 agonist 10 and NPYLR7 agonist max-min 16.
`C=CCCC(O)CN(CCN1CCOCC1)Cc1ccccc1C` (centres undefined) gave NPYLR7 agonist 13 and NPYLR7 agonist max-min 12.
Cc1nc(C(=O)N(C)Cc2cc(-c3ccncc3)no2)cs1 was read as NPYLR7 agonist 4 and NPYLR7 agonist max-min 1.
CS(=O)(=O)CCN1CCN(c2nccc(CCC(F)(F)F)n2)CC1 was read as NPYLR7 agonist 0 and NPYLR7 agonist max-min -1.
Screening O=C1CSC2=NCN(c3ccc(Cl)c(Cl)c3)CN12 returned NPYLR7 agonist 3 and NPYLR7 agonist max-min 2.
CCCn1c(SCc2nc3ccccc3n2Cc2ccccc2)nc2ccccc21 was read as NPYLR7 agonist 0 and NPYLR7 agonist max-min -3.
`CC1CCN(c2ccc(NC(=O)Nc3ccc(F)c(Cl)c3)cc2C(=O)NCCc2ccccc2)CC1` gave NPYLR7 agonist -3 and NPYLR7 agonist max-min 3.
CCc1nc2oc3cc(OC)ccc3c(=O)c2c(=O)n1-c1ccccc1 was read as NPYLR7 agonist -2 and NPYLR7 agonist max-min -1.
For COc1cc(NCc2cccnc2N(C)Cc2ccccc2)ncn1 the results were NPYLR7 agonist -2 and NPYLR7 agonist max-min 0.
CCCCN(C)C(=O)c1sc(=O)n(Cc2ccc(SC)cc2)c1C was read as NPYLR7 agonist 4 and NPYLR7 agonist max-min 2.
Cc1cc(=O)c2nncn2[nH]1 was read as NPYLR7 agonist 3 and NPYLR7 agonist max-min 1.
For Cc1ccc(NC(=O)C2CC=CCC2)cc1S(=O)(=O)Nc1ccc(Cl)cc1 (centres undefined) the results were NPYLR7 agonist 0 and NPYLR7 agonist max-min -3.
For COCCCn1c(C(=O)Nc2ccc3c(c2)OCO3)cc2c(=O)n(C)c(=O)n(C)c21 the results were NPYLR7 agonist -1 and NPYLR7 agonist max-min -2.
`Cc1ccc(NC(=O)CC2S/C(=N/N=C\c3cccc(O)c3)NC2=O)cc1Cl` (centres undefined) gave NPYLR7 agonist 7 and NPYLR7 agonist max-min 6.
c1ccc(C(c2ccccc2)c2noc(CN3CCN(C4CCCC4)CC3)n2)cc1 was read as NPYLR7 agonist 7 and NPYLR7 agonist max-min 4.
For OC(Cn1nnc2ccccc21)Cn1c2ccccc2c2ccccc21 (centres undefined) the results were NPYLR7 agonist 10 and NPYLR7 agonist max-min 7.
Screening N#Cc1ccccc1S(=O)(=O)N[C@H]1CO[C@H]2[C@@H]1OC[C@H]2OCC(N)=O returned NPYLR7 agonist -6 and NPYLR7 agonist max-min -16.
For Cc1ccc(Cl)cc1N1CCN(CC(=O)Nc2cnccn2)CC1 the results were NPYLR7 agonist 7 and NPYLR7 agonist max-min 7.
`CCS(=O)(=O)N1CCN=C1SCc1cc(C)ccc1C` gave NPYLR7 agonist 12 and NPYLR7 agonist max-min 11.
Screening COc1ccc(Nc2nc(NCCc3ccccc3)nc3nccnc23)cc1 returned NPYLR7 agonist 4 and NPYLR7 agonist max-min 5.
Screening CCNC(=O)N1CCC(NC(=O)C2(c3cccs3)CC2(C)C)CC1 (centres undefined) returned NPYLR7 agonist -4 and NPYLR7 agonist max-min -4.
`Cc1ccc(S(=O)(=O)N2CCC3(CC2)Nc2ccccc2C(=O)N3c2ccccc2)cc1Cl` gave NPYLR7 agonist 0 and NPYLR7 agonist max-min -1.
Screening O=C1C[C@H](NC(=O)C(F)(F)F)C(=O)N1CCCn1cccn1 returned NPYLR7 agonist 3 and NPYLR7 agonist max-min 0.
For CC1(C)CC(=O)C(C(c2cc([N+](=O)[O-])ccc2Cl)C2C(=O)CC(C)(C)CC2=O)C(=O)C1 the results were NPYLR7 agonist 2 and NPYLR7 agonist max-min 5.
Screening O=C(Nc1ccnn1CC1=CCCN(CCO)C1)c1ccco1 returned NPYLR7 agonist -3 and NPYLR7 agonist max-min -3.
NC(=O)c1nnn([C@H]2C[C@H]3C(=O)N4CC[C@@H](OCc5ccc(F)cc5)C[C@H]4C(=O)N3C2)c1C(N)=O was read as NPYLR7 agonist -5 and NPYLR7 agonist max-min -17.
`CCOCCCNC(=O)c1cc(NC(=O)c2ccc3c(c2)OCO3)ccc1N1CCN(c2ccccc2OC)CC1` gave NPYLR7 agonist -2 and NPYLR7 agonist max-min 13.
COc1cn(CC(=O)Nc2cc(C)ccc2C)c(CN2CCN(c3ccccc3)CC2)cc1=O was read as NPYLR7 agonist -2 and NPYLR7 agonist max-min -3.
COc1ccccc1OCC1c2ccsc2CCN1C(=O)CN(CC1CCCO1)C(=O)c1ccco1 (centres undefined) was read as NPYLR7 agonist 3 and NPYLR7 agonist max-min 15.
`O=C(c1ccc2oc(CCc3ccccc3)nc2c1)N1CCN(c2ccccn2)CC1` gave NPYLR7 agonist 0 and NPYLR7 agonist max-min -5.
Screening CCOc1ccnc2c1c(=O)n(CC(=O)NCCOC)c(=O)n2C returned NPYLR7 agonist 0 and NPYLR7 agonist max-min 0.
CCOc1ccc(C)cc1S(=O)(=O)N1CCN(Cc2ccc3c(c2)OCO3)CC1 was read as NPYLR7 agonist 9 and NPYLR7 agonist max-min 9.
`CC(Cn1cccn1)NC(=O)c1cc(-c2ccncc2)nc2ccccc12` (centres undefined) gave NPYLR7 agonist -4 and NPYLR7 agonist max-min -3.
Screening N#CC1=C(SCC(=O)Nc2ccc(F)cc2)NC(=O)C(C#N)C12CCCCC2 (centres undefined) returned NPYLR7 agonist 1 and NPYLR7 agonist max-min 17.
For Cc1cc(C(F)(F)F)nc(CCn2ccnc2C2CCOC(C)(C)C2)n1 (centres undefined) the results were NPYLR7 agonist -4 and NPYLR7 agonist max-min -9.
Screening CP(C)(=Nc1ccc([N+](=O)[O-])cc1)C12CC3CC(CC(C3)C1)C2 returned NPYLR7 agonist 6 and NPYLR7 agonist max-min 5.
CC(C(=O)Nc1ccc2c(c1)OCCO2)S(=O)(=O)c1ccccn1 (centres undefined) was read as NPYLR7 agonist 10 and NPYLR7 agonist max-min 8.
`COCCc1ncc(CN2CCC3(CCCN(Cc4cccc(OC)c4OC)C3)C2)cn1` (centres undefined) gave NPYLR7 agonist 0 and NPYLR7 agonist max-min -2.

High-throughput results: PubChem BioAssay, Fisher Drug Discovery Resource Center

Not all compounds are listed; count on the stated rates, not on these rows.
